Bioassay records from PubChem BioAssay.
TDP1 block = TDP1 (human) enzyme inhibition. AID 485290. Potency, µM (highest dose often 130 µM), inactives show at the top dose activity change, negative = inhibition, most hits filed as inhibitors. Q9NUW8. actives 0.28% (n = 350,000). recombinant TDP1, AlphaScreen DNA substrate cleavage; note: nearly all actives have a fitted effect of over 40% in size
Target sequence (Q9NUW8 whole entry, looked up): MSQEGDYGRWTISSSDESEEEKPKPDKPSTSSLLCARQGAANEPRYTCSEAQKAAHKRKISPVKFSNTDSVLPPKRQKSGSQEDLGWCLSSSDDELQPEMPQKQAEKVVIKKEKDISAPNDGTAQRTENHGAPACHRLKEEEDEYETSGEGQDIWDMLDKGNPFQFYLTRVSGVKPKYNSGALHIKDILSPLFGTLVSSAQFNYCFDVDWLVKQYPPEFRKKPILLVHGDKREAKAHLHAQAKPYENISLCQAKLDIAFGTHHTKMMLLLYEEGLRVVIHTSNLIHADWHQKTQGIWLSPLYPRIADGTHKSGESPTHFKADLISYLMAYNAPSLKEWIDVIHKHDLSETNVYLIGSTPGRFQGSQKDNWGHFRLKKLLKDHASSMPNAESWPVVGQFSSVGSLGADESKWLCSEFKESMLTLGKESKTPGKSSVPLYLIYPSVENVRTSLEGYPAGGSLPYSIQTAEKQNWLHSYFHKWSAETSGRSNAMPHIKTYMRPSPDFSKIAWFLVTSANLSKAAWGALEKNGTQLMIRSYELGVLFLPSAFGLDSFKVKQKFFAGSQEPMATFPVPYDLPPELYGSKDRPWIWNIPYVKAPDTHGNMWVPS
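Tdp1 1 nM final; 15 min RT w/ cpd; substrate 15 nM, 5 min; beads 10 ug/ml, 10 min; AlphaScreen read. Neg ctrl: no enzyme.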
FEN1 inhibitor = blocks human flap endonuclease 1; P39748; Potency, µM (doses to about 114 µM), inactives show at the highest dose activity change, negative = inhibition, hits mostly inhibitors; Recombinant FEN1 flap cleavage, fluorescence, 15 min; actives 0.35% (n = 390,000); note: nearly all actives have a fitted effect of over 65% in size
Target sequence (P39748 whole entry, looked up): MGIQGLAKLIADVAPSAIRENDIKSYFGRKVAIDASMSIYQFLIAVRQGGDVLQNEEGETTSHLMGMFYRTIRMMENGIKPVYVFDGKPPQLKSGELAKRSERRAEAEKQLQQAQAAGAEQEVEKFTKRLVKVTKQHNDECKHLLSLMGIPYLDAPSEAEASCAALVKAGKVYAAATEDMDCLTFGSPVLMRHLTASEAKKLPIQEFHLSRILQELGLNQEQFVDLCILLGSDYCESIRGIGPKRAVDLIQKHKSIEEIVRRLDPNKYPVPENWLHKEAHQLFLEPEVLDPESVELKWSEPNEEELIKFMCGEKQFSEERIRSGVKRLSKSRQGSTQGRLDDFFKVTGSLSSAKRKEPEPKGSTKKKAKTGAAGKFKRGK
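With each library titrated from low to high concentration, compounds met 10 nM FEN1 for 15 min at room temperature before 50 nM substrate was added; readings at 0 and 15 min fed four-parameter Hill curve fits.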
An asterisk follows results filed as active; u = inconclusive; x = not tested or not shown; & = joins results of further samples. Calls come from the whole dose curve; as a rule, active = well fitted inhibition curve with a large enough effect; inconclusive = small, poorly fitted or top-dose-only effect; inactive = no such curve, though single readings can be large or run the other way. % is set by controls: 0 for no effect and ±100 for the full control effect; potency is the fitted concentration of half-maximal effect. Only part of the results is shown, and most or all hits are left out here.

Start of the data: the first 7 compounds (preview)
canonical_smiles | FEN1 inhibitor | TDP1 block
CC(=O)Nc1ccc(NC(=O)COC(=O)c2ccc(Cl)nc2)cc1 | 2.1% | -15.4%
CN(C)S(=O)(=O)N(CCN1CCOCC1)Cc1ccccc1F | 0.8% | 2.4%
COc1ccc(S(=O)(=O)N(c2onc(C)c2Cl)S(=O)(=O)c2ccc(OC)cc2)cc1 | -9.5% | 7.4%
N#CC(c1ccc(F)cc1)c1ccc(C(=O)c2ccccc2)cc1 (centres undefined) | 2.3% | -3.5%
Cc1noc(C)c1CC(=O)N1CCCC(C(=O)c2ccc(C(C)(C)C)cc2)C1 (centres undefined) | -0.6% | x
CCn1nnc(-c2ccccc2NS(=O)(=O)c2ccc(S(=O)(=O)N(C)C3CCCCC3)cc2)n1 | -14.8% | 2.3%
O=C(Cn1nc(-c2ccc(F)cc2)ccc1=O)Nc1ccc2c(c1)OCCO2 | 0.7% | -0.2%

The whole of this part, previewed entries included:
canonical_smiles | FEN1 inhibitor | TDP1 block
CC(=O)Nc1ccc(NC(=O)COC(=O)c2ccc(Cl)nc2)cc1 | 2.1% | -15.4%
CN(C)S(=O)(=O)N(CCN1CCOCC1)Cc1ccccc1F | 0.8% | 2.4%
COc1ccc(S(=O)(=O)N(c2onc(C)c2Cl)S(=O)(=O)c2ccc(OC)cc2)cc1 | -9.5% | 7.4%
N#CC(c1ccc(F)cc1)c1ccc(C(=O)c2ccccc2)cc1 (centres undefined) | 2.3% | -3.5%
Cc1noc(C)c1CC(=O)N1CCCC(C(=O)c2ccc(C(C)(C)C)cc2)C1 (centres undefined) | -0.6% | x
CCn1nnc(-c2ccccc2NS(=O)(=O)c2ccc(S(=O)(=O)N(C)C3CCCCC3)cc2)n1 | -14.8% | 2.3%
O=C(Cn1nc(-c2ccc(F)cc2)ccc1=O)Nc1ccc2c(c1)OCCO2 | 0.7% | -0.2%
Cc1ccc(C(=O)Cn2nnc3ccccc32)cc1[N+](=O)[O-] | 3.6% | 2.4%
CC1CCc2sc(C(=O)N/N=C/c3ccc([N+](=O)[O-])cc3)cc2C1 (centres undefined) | -9.4% | 3.4%
CN(C)S(=O)(=O)c1cccc(COC(=O)CN2C(=O)NC3(CCCC3)C2=O)c1 | -1.6% | 1.9%
O=C(CSc1nnc(NC(=O)C2CC2)s1)Nc1ccccc1Cl | 33.7% | x
CC(C)(C)C(=O)Nc1nnc(SCC(=O)NC2CC2)s1 | 1.0% | 9.3%
O=C(NCC1CCCO1)c1ccc2c(=O)n(-c3ccccc3)c(=S)[nH]c2c1 (centres undefined) | 7.6% | 6.9%
O=C(CCc1nnc(Cc2c[nH]c3ccccc23)o1)NC(C1CC1)C1CC1 | -2.6% | -2.4%
CN(C)C(=O)C(OC(=O)c1ccc2ccccc2n1)c1ccccc1 (centres undefined) | -5.3% | -17.4%
Cc1cc(NC(=O)CN2C(=O)NC3(CCCCC3)C2=O)ccc1N1CCCC1 | 7.8% | 5.8%
Cc1ccc(N2CC(C(=O)N3CCC(C(=O)Nc4nnc(C(C)C)s4)CC3)CC2=O)cc1 (centres undefined) | -0.8% | 8.9%
CCCn1cc(CN2CCC(N3CCC(C(=O)N4CCOCC4)CC3)CC2)c(C)n1 | 2.6% | -1.2%
C[C@@H]1CN(Cc2cn(C)nc2-c2cccc(Cl)c2)C[C@H](C)O1 | -3.8% | -5.6%
COc1c2c(nc3occc13)C(CC=C(C)C)(OC)C(OC(C)=O)CC2 (centres undefined) | -12.7% | 0.0%
CCOC(=O)c1c2n(c3ccc(O)cc13)CCC2 | 3.4% | 2.7%
COc1ccc(NC(=O)Cn2nnc(C(=O)NCc3ccccc3)c2N)cc1Cl | -3.5% | 2.2%
O=C(O)c1cc(O)ccc1NC(=O)C(c1ccccc1)c1ccccc1 | -8.0% | 5.1%
O=C(CN1C(=O)c2cccc3cccc(c23)C1=O)N1CCN(Cc2ccc3c(c2)OCO3)CC1 | -12.7% | 0.0%
NC(=O)CCCSc1nc2ccccc2[nH]1 | 9.0% | -2.6%
Cc1nnc2ccc(-c3ccc(NC(=O)c4cccnc4Cl)cc3)nn12 | 2.1% | 3.7%
COCCN1C(=O)C(=O)/C(=C(/O)c2ccc(S(=O)(=O)N3CCCCC3)cc2)C1c1ccc(OC)cc1 (centres undefined) | 6.7% | 3.9%
CC(C)NC(=O)[C@H]1N2C(=O)c3ccccc3C2SC1(C)C (some centres undefined) | -7.0% | x
O=C(Nc1cccc(S(=O)(=O)N2CCOCC2)c1)c1cn(-c2ccccc2)nc1-c1ccccc1 | 5.8% | 2.3%
Cc1nn(-c2nnc(C)c(=O)[nH]2)c(C)c1SCC(=O)Nc1ccc(F)cc1 | -4.2% | 5.2%
Cn1c(=O)[nH]c(=O)c2c1nc(N1CCCCCC1)n2CCCSc1nnnn1-c1ccccc1 | x | 5.6%
O=C(O)CC1c2ccccc2S(=O)(=O)N1Cc1ccccc1 (centres undefined) | 19.1% | -11.8%
CN(CC(O)CON=C1c2ccccc2-c2ccccc21)S(=O)(=O)c1ccc(Br)cc1 (centres undefined) | -11.2% | -3.4%
CCOC(=O)CN(c1ccccc1)S(=O)(=O)c1ccc(F)cc1 | 1.9% | 3.8%
CC(=O)c1cn(CC(=O)Nc2ccccc2F)c2ccccc12 | -14.9% | x
CN(C)CCNc1oc(COc2ccc(Cl)cc2)nc1C#N | -8.2% | 0.0%
O=C(COc1ncnc2cc([N+](=O)[O-])ccc12)NCCc1ccc(Cl)cc1 | -6.3% | 9.6%
CCOC(=O)c1c(NC(=O)c2nn(C)cc2[N+](=O)[O-])sc(C)c1C | 10.3% | 2.6%
COc1cc(NC(=O)c2c3c(nc4ccccc24)CCC3)cc(OC)c1 | 3.7% | 2.0%
CN(C)CCCNS(=O)(=O)c1cc(Cl)ccc1Cl | -1.3% | 4.8%
O=C(Nc1ccc2c(c1)OCCO2)c1cc(-c2ccccn2)nc2ccc(Br)cc12 | -0.5% | 0.0%
COc1ccc(C(C#N)N2N=C(C)CC2c2ccccc2)cc1OC (centres undefined) | 17.9% | x
Cc1cccc(NC(=O)c2ccccn2)c1C | 8.1% | 4.2%
CCCOc1ccc(/C(O)=C2/C(=O)C(=O)N(CCCn3ccnc3)C2c2cccs2)cc1 (centres undefined) | -2.2% | 10.5%
CC(=O)c1ccc(NC(=O)CC(NCCC2=CCCCC2)C(=O)O)cc1 (centres undefined) | -8.5% | 2.4%
CCc1c(C)nc2[nH]nc(NC(=O)C(F)(F)F)n2c1=O | 2.2% | 3.2%
O=C(NNc1ncnc2c1cnn2-c1ccccc1)c1ccco1 | -1.7% | 2.5%
O=C(Nc1ncn[nH]1)c1cc(S(=O)(=O)Nc2ccc(Cl)cc2)ccc1Cl | -3.2% | 3.5%
O=c1[nH]c(NCc2ccco2)nnc1Cc1ccccc1Cl | -5.9% | 3.1%
CCOc1ncccc1C(=O)OCC(=O)Nc1ccc(C(N)=O)cc1 | -6.2% | -2.7%
CCn1c(CC(=O)Nc2ccccc2)nnc1SCC(=O)N1CCOCC1 | -4.0% | 2.3%
COc1ccc(/C=C2\CCCC3C2=NN(C(=O)c2scnc2C)C3c2ccc(OC)c(OC)c2)cc1OC (centres undefined) | 0.3% | 0.0%
Fc1ccc(-c2nc(-c3cnccn3)no2)c(Cl)c1 | -7.2% | 0.0%
O=C(NCC1CCCO1)C(c1cccs1)N(C(=O)c1ccc(CN2CCOCC2)o1)c1ccc(Cl)cc1 (centres undefined) | -4.2% | 0.6%
COc1ccc(N2C(=O)C3C(C2=O)C2C=CC3C23CC3)c(OC)c1 (centres undefined) | -6.8% | 3.9%
CCN(CC)CCOc1nc(C)nc2c1oc1ccccc12 | 12.6% | 5.3%
COC(=O)CC1=NN(c2ccc(OC)cc2)C(=O)C1 | 7.6% | 5.9%
S=C(NC1CCCCCC1)NC1CCCC1 | 1.4% | 0.0%
COc1ccc(N2CCN(C(CNC(=O)C(C)(C)C)c3cccnc3)CC2)cc1 (centres undefined) | 5.1% | 1.2%
Cc1cccc(C)c1OCC(=O)Nc1cccc(-c2nnc(-c3ccccc3)o2)c1 | 3.9% | 3.1%

More structures follow.
canonical_smiles | FEN1 inhibitor | TDP1 block
O=C1Nc2ccccc2C1=Nc1ccc(-c2nnc3n2CCCCC3)cc1 | -0.2%&-1.8% | 4.7%
CN1CCN(c2ccc(-c3cccc(NC(=O)COc4ccc(Cl)cc4)c3)nn2)CC1 | -5.0% | x
Cc1oc2c(cc(NS(=O)(=O)c3cccs3)c3ccccc32)c1C(=O)OC(C)C | 6.8% | 0.0%
CC(C)(C)c1cc(CN2CCN(CCC#N)CC2)cc(C(C)(C)C)c1O | 0.2% | 5.9%
Cc1nn(CC(=O)N2CCN(c3cccc(C(F)(F)F)c3)CC2)c(=O)c2cccn12 | -6.0%&1.3% | 3.5%&2.9%
CC(/C=N/n1c(COc2ccccc2)n[nH]c1=S)=C\c1ccccc1 | -22.1% | 10.4%
O=C(Nc1ccccc1)c1ccc2ccccc2n1 | -8.0% | 3.5%
O=S(=O)(c1ccc(Oc2ccc(-c3nnco3)cc2)nc1)N1CCC(Cc2ccccc2)CC1 | 0.7% | -2.3%
COc1cc(C2/C(=C(\O)c3ccc4c(c3)OCCO4)C(=O)C(=O)N2Cc2ccco2)cc(OC)c1OC (centres undefined) | -0.8% | -0.5%
CN(C)CCSc1nnc2[nH]c3ccccc3c2n1 | -22.1% | 8.3%
Cc1[nH]c2ccccc2c1C(=O)C(C)OC(=O)C1CCC1 (centres undefined) | 1.7% | -2.7%
CCCN1c2cccc3cccc(c23)S1(=O)=O | 2.9% | u
CC1(C)CC(=O)N(CC(=O)N2CCN(c3ncccn3)CC2)c2ccccc2S1(=O)=O | 7.4% | 1.1%
CCOC(=O)N1CCC(n2c(SCC(=O)NCCc3ccc(S(N)(=O)=O)cc3)nc3ccccc3c2=O)CC1 | 8.3% | 6.1%
O=C(NCc1cccnc1)C1CC(=O)N(CCc2ccccc2)C1 (centres undefined) | -3.2% | -10.8%
CN1CC=C2C(C#N)=C(N)C(C#N)(C#N)C(c3ccsc3)C2C1 (centres undefined) | -7.1% | 4.8%
COc1cc(C(=O)Nc2c(C)cc(C)cc2C)c(Br)c(OC)c1OC | 1.1% | 3.0%
Cc1ccc(NC(=O)C(=O)NCCN2CCN(Cc3ccc([N+](=O)[O-])cc3)CC2)cc1 | -1.1% | 2.7%
COC(=O)[C@H](Cc1c[nH]c2ccccc12)NC(=O)NCc1ccc(OC)cc1 | -0.2% | x
Cc1nc2c(C)[n+](CC(=O)c3ccccc3)ccc2n1C | 2.5% | 4.2%
CC(C)(C)CC(=O)NC(=S)Nc1ccccc1[N+](=O)[O-] | -4.9% | 0.0%
CC(C(=O)Nc1ccc(S(=O)(=O)N2CCCC2)cc1)N1CCN(C(=O)c2ccco2)CC1 (centres undefined) | 3.0% | 4.6%
CCOP(=O)(c1c(F)c(F)c(F)c(F)c1F)C1(O)CCCCC1 (centres undefined) | -0.6% | -2.4%
CC(C)(C)C1CCc2onc(C(=O)Nc3ccc(F)cc3F)c2C1 (centres undefined) | -4.5% | 0.0%
CCOC(=O)c1sc2c(c1C)c(=O)n(Cc1ccccc1)c(=O)n2CCN(C)C | -12.9% | x
CC1CCCN(C(=O)COC(=O)c2ccc(=O)n(Cc3ccccc3)n2)C1 (centres undefined) | -4.8% | 0.7%
Cc1ccc(S(=O)(=O)N2CCN(C(=O)CSc3nc(N)cc(=O)[nH]3)CC2)c(C)c1 | -8.7% | 1.8%
COc1ccc(CCNC(=O)CSc2nnc(CNC(=O)c3ccccc3F)o2)cc1OC | -0.7% | 6.8%
COc1ccc(NC(=O)CN(C)CCOc2ccc(Cl)cc2)cc1OC | -3.0% | x
CCOc1ccccc1NC(=O)COC(=O)Cc1cccs1 | -0.1% | -1.9%
Cc1c(NC(=O)COC(=O)C23CC4CC(CC(O)(C4)C2)C3)c(=O)n(-c2ccccc2)n1C | 2.2% | 2.6%
COCc1cc(C)nc2sc3c(=O)n(Cc4ccco4)nnc3c12 | 12.6% | -7.8%

Three structures already listed, sorted by count of non-hydrogen atoms, low to high.
canonical_smiles | FEN1 inhibitor | TDP1 block
CCOc1ccccc1NC(=O)COC(=O)Cc1cccs1 | -0.1% | -1.9%
COc1ccc(NC(=O)CN(C)CCOc2ccc(Cl)cc2)cc1OC | -3.0% | x
COc1ccc(CCNC(=O)CSc2nnc(CNC(=O)c3ccccc3F)o2)cc1OC | -0.7% | 6.8%
